# Bioassay records (PubChem BioAssay)
# RGS16-Gao HTS: RGS16-Galphao interaction regulator (human). O15492+P09471. bead-based flow cytometry RGS16-Galphao binding, fluorescence; actives lie on both sides. binding response (% of control), % at 10 µM. hit rate 0.38% among 220,000. AID 1441;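 active means below 25% or above 175%, edge rows of some plates excepted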;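 further: Galphao activated by GDP with aluminum fluoride before binding; 100% = wells without compound and 0% = beads without RGS; some results beyond the cut were filed as inactive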
# Target sequence (O15492 whole entry, looked up): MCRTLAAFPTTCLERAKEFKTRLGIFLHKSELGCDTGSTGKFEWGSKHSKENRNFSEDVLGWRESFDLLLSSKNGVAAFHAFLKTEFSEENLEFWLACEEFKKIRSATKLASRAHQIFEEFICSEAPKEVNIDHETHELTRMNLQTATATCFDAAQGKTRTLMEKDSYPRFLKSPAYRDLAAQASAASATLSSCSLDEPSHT
# Target sequence (P09471 whole entry, looked up): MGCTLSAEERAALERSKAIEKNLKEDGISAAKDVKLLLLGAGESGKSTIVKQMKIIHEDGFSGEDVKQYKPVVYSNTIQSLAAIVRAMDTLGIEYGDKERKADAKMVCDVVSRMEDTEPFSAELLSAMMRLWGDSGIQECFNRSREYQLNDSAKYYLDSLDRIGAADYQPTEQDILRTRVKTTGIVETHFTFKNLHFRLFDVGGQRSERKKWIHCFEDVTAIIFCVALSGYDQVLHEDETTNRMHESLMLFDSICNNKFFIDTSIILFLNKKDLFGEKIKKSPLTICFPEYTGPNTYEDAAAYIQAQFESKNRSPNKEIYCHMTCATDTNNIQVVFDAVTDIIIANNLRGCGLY
# GALR2 agonist: GALR2 (human) receptor agonism; GALR2-expressing cells, agonist activation read-out; activation, %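 (tested at 5 µM)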; hit rate 0.48% among 140,000; O43603;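 active means above mean plus 3 SD of all compounds, about 5% in these data, not always enough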;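 further: 0% = vehicle buffer wells and 100% = reference agonist at full effect; tested in CHO reporter cells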
# Target sequence (O43603 whole entry, looked up): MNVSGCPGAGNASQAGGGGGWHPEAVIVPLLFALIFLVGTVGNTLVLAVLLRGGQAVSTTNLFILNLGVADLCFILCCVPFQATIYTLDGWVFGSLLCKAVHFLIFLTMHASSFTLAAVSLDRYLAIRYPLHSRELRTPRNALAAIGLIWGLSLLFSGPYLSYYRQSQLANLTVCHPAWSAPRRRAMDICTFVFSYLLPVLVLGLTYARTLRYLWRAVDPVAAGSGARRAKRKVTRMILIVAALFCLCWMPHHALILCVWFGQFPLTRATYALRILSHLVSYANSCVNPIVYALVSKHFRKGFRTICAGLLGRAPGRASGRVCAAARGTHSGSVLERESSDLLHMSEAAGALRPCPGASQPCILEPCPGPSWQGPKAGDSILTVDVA
# PKD1 inh: blocks activity of human protein kinase D1; Q15139; PKD1 kinase fluorescence polarization assay; inhibition, %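 (about 10 µM by stock and volumes)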; hit rate 0.056% among 200,000; AID 797;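 active means inhibition of 50% or more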;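 further: controls were vehicle for no effect and a reference inhibitor for full effect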
# HSV augment: increases HSV replication in cells; HSV replication augmentation in cells, fold increase; maximum fold increase; hit rate 0.005% among 220,000;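 active means peak rise of 1.5-fold or more in the series; inconclusive means self-fluorescent or not available for retest; tested in PC3 cells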;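 further: first round at 10 µM; read as green reporter fluorescence; hits show the peak of a series up to 25 µM; 1 = signal of infected wells without compound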
# Insulin prom inh: TRM-6 insulin promoter activity inhibition. hit rate 0.9% among 130,000. inhibition, % at 2 µM. AID 1273. TRM-6 cells (human fetal islet line), insulin promoter-eGFP reporter, imaging; reporter expression induced with tamoxifen;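 active means inhibition above the mean plus 3 SD, with well images judged a real hit on visual review, cut at about 60% in these data, passing the limit was not always enough; inconclusive means inhibition over the cutoff but images rejected on review; inactive means inhibition not above the cutoff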
# Insulin prom inh cell count: recorded beside Insulin prom inh, whose call it bears; normalized cell count, %; measured here: cell count, toxicity; reference of the scale not given here;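 cells exposed to compound for 48 h; stained nuclei by imaging scaled within each plate; lower means fewer cells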
# HSV augment primary fold: second read-out of HSV augment, no call of its own (marks repeat the call); fold increase; compound at 10 µM; measured here: primary screen fold increase 10 uM; tested in PC3 cells;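 GFP signal in the first replicate; 1 = infected wells without compound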
# * hit, by the source's call; i = inactive; ? = inconclusive; . = no result given.
SMILES,RGS16-Gao HTS,GALR2 agonist,PKD1 inh,HSV augment,HSV augment primary fold,Insulin prom inh,Insulin prom inh cell count
CCc1cccc(NC(=S)Nc2ccc(CN3CCOCC3)cc2)c1,105,.,-5,i,0.9,.,.
O=C(Nc1ccc([N+](=O)[O-])cc1)Nc1ccc2c(c1)OCCO2,92,.,-4,i,0.88,.,.
CCN(c1cccc(C)c1)S(=O)(=O)c1ccc2c3c(cccc13)C(=O)N2,86,0.1,-6,i,0.84,67,92
NS(=O)(=O)c1cc2c(cc1Cl)NC=NS2(=O)=O,102,-0.9,1,i,0.98,32,118
O=C(CN(c1ccc2c(c1)OCCO2)S(=O)(=O)c1ccccc1)N1CCN(Cc2ccccc2)CC1,105,.,-8,i,0.99,.,.
COc1cc(Cl)c(S(=O)(=O)N2CCCC2)cc1Cl,100,.,2,i,0.91,.,.
O=C(Nc1ccc2c(c1)OCO2)c1c(F)c(F)c(F)c(F)c1F,100,-3.6,-1,i,0.86,-8,101
COc1cc(/C=N/N=C2/NC(=O)C(CC(=O)O)S2)ccc1OCc1ccc(Cl)cc1 (stereo unspecified),101,-1.2,-1,i,1,25,120
COC(=O)c1ccccc1NC(=O)CN1CCOCC1,112,-0.5,-8,i,1,-6,61
COC(=O)C1CCN(C(=O)c2c(-c3ccccc3Cl)noc2C)CC1,98,-2.7,-3,i,1.1,-1,105
Cc1ccccc1N1C(=O)CC(Sc2nnc(-c3ccccc3)o2)C1=O (stereo unspecified),100,-0.3,-3,i,0.87,.,.
COc1ccc(OC)c(-c2c3cc(O)c(=O)cc-3oc3cc(O)c(O)cc23)c1,17*,-0.7,12,?,.,-149,59
O=C1CN(C(=O)COC(=O)/C=C/c2ccco2)c2ccccc2N1,103,.,-3,i,1.1,.,.
COc1ccc(C(C(=O)NC2CCCC2)N(CC2CCCO2)C(=O)Cn2nnc(-c3ccc(C)o3)n2)cc1 (stereo unspecified),104,.,-3,i,0.97,.,.
Cc1ccccc1C(=O)NNC(=O)CSc1nc(-c2ccccc2)cc(=O)[nH]1,95,.,-8,i,0.84,.,.
COc1cc([N+](=O)[O-])cc(/C=N/NC(=O)CC#N)c1O,83,.,-1,i,0.88,.,.
O=C(O)CSCC(=O)c1ccccc1,95,-2.0,-1,i,0.9,.,.
COc1cc(C2NCCc3c2[nH]c2ccccc32)ccc1OC(C)C (stereo unspecified),41,.,4,i,0.83,5,87
Cc1cc(/C=C(\C#N)C(=O)O)c(C)n1C1CC1,89,-0.8,6,.,.,0,97
CCSc1nnc(NC(=O)CSc2nc3c(c(=O)n2-c2ccccc2OC)SCC3)s1,100,0.8,-5,i,0.79,56,121
OC(COc1ccc2ccccc2c1)CN1CCN(c2ccc(F)cc2)CC1 (stereo unspecified),104,0.2,-9,i,0.83,57,116
Cc1cccc(OCC(O)CN2C(C)(C)CC(O)CC2(C)C)c1C (stereo unspecified),100,-1.0,-2,i,1,45,133
CCN(CC)S(=O)(=O)c1ccc(N(C)CCc2ccc(OC)c(OC)c2)nc1,97,.,-5,i,1,-18,110
COc1ccc(Oc2ccc(-c3ccn[nH]3)cc2)cc1,94,.,.,i,1.1,.,.
COc1ccc(Cc2c3cc(OC)c(OC)cc3cc[n+]2C)cc1OC,106,.,.,i,0.98,.,.
O=C(Nc1ccccn1)c1cc(-c2cccc(Cl)c2)nc2ccccc12,104,.,-5,i,1,.,.
Cn1nnnc1SCC(=O)N1CCN(S(=O)(=O)c2ccc(Cl)cc2)CC1,103,.,-4,i,0.93,53,106
CCOC(=O)c1c(C)c(C(=O)NCc2cccnc2)c(C)n1C,99,-0.2,6,i,0.99,0,62
C=CCn1c(-c2ccccc2)c[nH]c1=S,99,-3.1,-7,i,0.94,19,169
Cc1sc2ncnc(SCC#N)c2c1C,90,-0.8,-3,i,0.86,-62,53
COc1ccc(CCNC(=O)C2CC2)cc1OC,103,-1.2,-5,i,0.95,.,.
O=C(Nc1ccc(F)cc1)N1CCC(c2nc3c(nnn3Cc3ccccc3Cl)c(=O)[nH]2)CC1,103,.,3,i,0.77,.,.
C=CCN1C(=O)c2cccc3c(N4CCCCC4)ccc(c23)C1=O,104,.,-1,?,.,i,94
N#Cc1cnn2ccc(-c3ccc4c(c3)CCC4)nc12,100,.,10,i,0.95,.,.
c1ccc(N2CC[N+]3(CCCC3)CC2)nc1,101,-1.6,0,i,1,.,.
C=CCn1c(=NC(=O)c2ccccc2[N+](=O)[O-])sc2cc(S(C)(=O)=O)ccc21,101,0.4,-4,i,0.96,.,.
CCCCn1c(=O)[nH]c(=O)c2c(C(=O)OCC)cc(-c3ccc(OC(F)F)cc3)nc21,104,.,-4,i,0.76,18,130
CC(=O)c1cnc(-c2ccccn2)s1,91,.,-10,i,1,27,122
COc1cc(/C=C/C(=O)N2CCN(C)CC2)cc(S(=O)(=O)N2CCc3ccccc32)c1OC,102,.,.,i,1,.,.
O=S(=O)(Nc1nc2cc3c(cc2nc1Cl)OCCO3)c1ccccc1,98,.,-6,i,1,.,.
Cc1ccnc(NS(=O)(=O)c2ccc(NC(=O)/C=C/c3cccs3)cc2)n1,111,.,3,i,0.98,14,77
Cc1cc(C(=O)Nc2ccccc2)oc(=O)c1,107,.,.,i,1.1,.,.
Clc1ccccc1-c1nnc2sc(C3COc4ccccc4O3)nn12 (stereo unspecified),85,-1.3,-6,i,0.86,21,128
CCc1cccc(C)c1NC(=O)CSc1nnc(-c2cc3cc(Br)ccc3o2)n1CC,112,-0.9,0,i,0.9,0,95
CCN(c1ccccc1)S(=O)(=O)c1cc(OC)ccc1OC,103,-1.8,-2,i,1.1,-7,140

# Exported field by field: part of the list above.
c1ccc(N2CC[N+]3(CCCC3)CC2)nc1
  RGS16-Gao HTS = 101; GALR2 agonist = -1.6; PKD1 inh = 0; HSV augment = i; HSV augment primary fold = 1; Insulin prom inh = .; Insulin prom inh cell count = .
C=CCn1c(=NC(=O)c2ccccc2[N+](=O)[O-])sc2cc(S(C)(=O)=O)ccc21
  RGS16-Gao HTS = 101; GALR2 agonist = 0.4; PKD1 inh = -4; HSV augment = i; HSV augment primary fold = 0.96; Insulin prom inh = .; Insulin prom inh cell count = .
CCCCn1c(=O)[nH]c(=O)c2c(C(=O)OCC)cc(-c3ccc(OC(F)F)cc3)nc21
  RGS16-Gao HTS = 104; GALR2 agonist = .; PKD1 inh = -4; HSV augment = i; HSV augment primary fold = 0.76; Insulin prom inh = 18; Insulin prom inh cell count = 130
CC(=O)c1cnc(-c2ccccn2)s1
  RGS16-Gao HTS = 91; GALR2 agonist = .; PKD1 inh = -10; HSV augment = i; HSV augment primary fold = 1; Insulin prom inh = 27; Insulin prom inh cell count = 122

# Remaining list, next part:
SMILES,RGS16-Gao HTS,GALR2 agonist,PKD1 inh,HSV augment,HSV augment primary fold,Insulin prom inh,Insulin prom inh cell count
C/C(CC(=O)Nc1ccc2c(c1)OCO2)=N\NC(=O)c1ccccc1N,102,.,.,i,0.96,.,.
O=C(c1ccccc1F)N1CCN(c2ccc([N+](=O)[O-])cc2-n2cccc2)CC1,93,.,.,i,0.89,.,.
O=C(Nc1ccn(Cc2ccccc2)n1)c1cccc(Cn2cc([N+](=O)[O-])cn2)c1,103,0.4,0,i,0.9,-19,72
COc1ccc2c(c1)cc(C(O)c1ccccn1)n2S(=O)(=O)c1ccccc1 (stereo unspecified),101,-1.4,-6,i,1.1,-107,63
Cc1ccc(N/C(=C\C(=O)c2ccccc2)C(=O)O)cc1,107,.,-1,i,1,33,121
Cc1cc([N+](=O)[O-])c(NCCCCCCO)c([N+](=O)[O-])c1,.,-0.3,-1,i,0.91,52,110
Cc1cccc2cc(CN(CC3CCCO3)C(c3nnnn3Cc3ccco3)C(C)C)c(=O)[nH]c12 (stereo unspecified),98,-1.4,-5,.,.,-15,107
O=C(Nc1ccc(F)c([N+](=O)[O-])c1)c1cccs1,104,.,-2,i,0.97,28,71
Cc1cc(C)c(S(=O)(=O)NNC(=O)C2CCN(Cc3ccccc3)CC2)c(C)c1,105,-2.1,-5,i,0.86,14,114
O=C1N(C2CCCC2)C[C@@H]2C[C@@H](c3cn[nH]c3-c3ccc(Cl)cc3)N3CCC[C@@]123,118,.,4,i,1,.,.
C(=C\c1ccccc1)/CSc1nnc(-c2ccncc2)n1Cc1ccco1,100,-0.7,1,i,1.2,.,.
CCOC(=O)C1=C(C)N(C)C(=O)NC1c1ccccc1OC (stereo unspecified),102,-0.6,1,i,1.1,-14,163
COC(=O)CSc1nc(NC(C)=O)nc(C)c1Br,94,-0.8,-4,i,0.97,-43,70
Cc1cc(C2=NNC(=Nc3ccc(S(=O)(=O)N4CCOCC4)cc3)SC2)c(C)n1C,92,.,.,i,1.1,.,.
Cc1noc(C)c1S(=O)(=O)N1CCN(Cc2ccc3c(c2)OCO3)CC1,94,-0.3,4,i,1,.,.
CCCCc1ccc(NC(=S)NCCCN2CCOCC2)cc1,101,.,5,i,0.96,18,84
CCCC(=O)Nc1ccc(N2CCN(C(=O)CCC)CC2)cc1,100,-1.1,7,i,1,-30,91
CN1CCSc2ccc(C(=O)Nc3cccc(F)c3)cc21,103,.,.,i,0.85,.,.
Cc1nc(N2CCN(C(=O)c3ccc(Cl)cc3)CC2)c(C#N)c2c1COC(C)(C)C2,99,-0.5,8,i,0.73,-238,88
Cc1ccc(C(=O)c2nc3c(n2O)CCCC3)cc1,105,0.5,-7,i,0.95,17,108
CCOC(=O)c1nc(C)c(C(C)=O)s1,92,.,.,i,0.89,.,.
COc1cc(C(=O)NC(CCSC)C(=O)OCC(=O)C(C)(C)C)cc(OC)c1OC (stereo unspecified),102,.,-2,i,0.94,-20,77
O=c1[nH]c(CN2CCN(c3ccccc3)CC2)nc2scc(-c3ccccc3)c12,93,-0.2,-3,i,0.99,-131,124
O=S(=O)(c1ccccc1)c1nc(-c2ccco2)oc1N1CCOCC1,97,0.3,-15,i,0.99,-36,108
COc1ccc(CC(=O)NC(C)(C)CC(C)=O)cc1OC,108,-1.2,-5,i,0.94,11,52
O=S(=O)(c1ccc(Oc2ccc(S(=O)(=O)N(CCO)CCO)cc2)cc1)N(CCO)CCO,109,.,-6,.,.,64,56
CCN(Cc1ccncc1)C(=O)c1cc(Br)cc(Br)c1O,116,.,-1,i,0.99,.,.
COc1ccc(CC2(CO)CCN(Cc3cnc(-c4ccccc4C)nc3)CC2)cc1,96,.,0,i,0.94,.,.
CCN(CC)S(=O)(=O)c1ccc(OC(C)C)nc1,98,-0.3,0,i,0.91,6,127
Cc1ccc(S(=O)(=O)Cc2ccc(C(=O)NCCCN3CCN(C)CC3)o2)cc1,94,-3.0,3,i,0.82,31,152
Cc1nc(N/N=C/c2ccccn2)sc1C,94,-1.6,-2,i,0.81,33,105
O=C(O)c1ccc(-c2nc(-c3ccccc3)c(-c3ccccc3)[nH]2)cc1,119,-0.8,-8,i,0.98,14,114
COc1ccc(NC(=O)CSc2nnc(C3CCCCC3)n2-c2ccccc2)cc1,104,1.2,-2,i,0.95,-21,82
C/C(=N\NC(=O)c1nnn(-c2nonc2N)c1COc1ccc(F)cc1)c1ccc(Cl)cc1,99,.,.,i,0.73,.,.
COC(=O)c1ccccc1NC(=S)NC(C)=O,104,.,-8,i,1.1,.,.
Fc1cccc(NCc2cn3ccccc3n2)c1,109,-0.3,-10,i,0.85,3,137
COc1ccccc1N1CCN(C2CCN(S(=O)(=O)c3ccc(C)cc3)CC2)CC1,94,.,.,i,1.1,.,.
Cc1ccccc1Nc1nnc(SCC(=O)Nc2ccccc2[N+](=O)[O-])s1,96,-0.7,6,i,1,.,.
COc1ccc(CC2(CO)CCN(C(C)Cc3ccc(Cl)cc3)CC2)cc1 (stereo unspecified),99,.,-6,i,0.73,.,.
O=C(NCC1CCCO1)c1cc(C(=O)C2CCCCC2)c[nH]1 (stereo unspecified),98,.,-9,i,1.1,.,.
CC1CCC(N2CCN(c3ncccn3)CC2)C1 (stereo unspecified),64,-1.4,11,i,0.96,61,52
CCCCn1c(S(=O)(=O)O)nc2ccccc21,99,-2.2,-2,i,0.98,-45,182
O=C(C[n+]1ccc2ccccc2c1)c1cccc2ccccc12,102,.,-3,i,0.99,0,69
CCSc1nc2cc(OC)c(OC)cc2c(=O)n1CC,100,-3.7,-9,i,0.96,-113,65
Cc1cccc(-n2c(=O)c(C#N)cc3c(=O)n4ccccc4nc32)c1,104,24*,-6,i,1.2,32,72
CCOC(=O)N1CCC(NC(=O)c2ccc3c(c2)N(CC)CCS3)CC1,.,-0.9,-12,i,0.82,.,.
COc1cc2c(cc1OC)C(=O)NCC(C)(C)O2,101,0.3,1,i,0.87,-17,82
C=CCN1C(=O)N/C(=C/c2ccc(N3CCOCC3)o2)C1=O,97,1.2,-10,i,0.64,-203,23
